Bioassay records: PubChem BioAssay, Johns Hopkins Ion Channel Center
KCNQ2 enhance: potentiators of rat KCNQ2 potassium channel | CHO-K1 KCNQ2, FluxOR thallium flux fluorescence; active compounds read high | B-score at 10 µM | 0.54% of 310,000 active;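 active means fluorescence ratio B-score at least 3 SD of library B-scores, with initial fluorescence B-score within 3 SD, cut at about 5.3 in these data; same plate scores as AID 2156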;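 further: B-score of peak minus minimum over baseline fluorescence ratio after K+ and Tl+ stimulus; positive B-score means potentiation of KCNQ2 with more thallium influx and brighter signal; only the inactives scoring about 0 or higher are listed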
Target sequence (O88943 whole entry, looked up): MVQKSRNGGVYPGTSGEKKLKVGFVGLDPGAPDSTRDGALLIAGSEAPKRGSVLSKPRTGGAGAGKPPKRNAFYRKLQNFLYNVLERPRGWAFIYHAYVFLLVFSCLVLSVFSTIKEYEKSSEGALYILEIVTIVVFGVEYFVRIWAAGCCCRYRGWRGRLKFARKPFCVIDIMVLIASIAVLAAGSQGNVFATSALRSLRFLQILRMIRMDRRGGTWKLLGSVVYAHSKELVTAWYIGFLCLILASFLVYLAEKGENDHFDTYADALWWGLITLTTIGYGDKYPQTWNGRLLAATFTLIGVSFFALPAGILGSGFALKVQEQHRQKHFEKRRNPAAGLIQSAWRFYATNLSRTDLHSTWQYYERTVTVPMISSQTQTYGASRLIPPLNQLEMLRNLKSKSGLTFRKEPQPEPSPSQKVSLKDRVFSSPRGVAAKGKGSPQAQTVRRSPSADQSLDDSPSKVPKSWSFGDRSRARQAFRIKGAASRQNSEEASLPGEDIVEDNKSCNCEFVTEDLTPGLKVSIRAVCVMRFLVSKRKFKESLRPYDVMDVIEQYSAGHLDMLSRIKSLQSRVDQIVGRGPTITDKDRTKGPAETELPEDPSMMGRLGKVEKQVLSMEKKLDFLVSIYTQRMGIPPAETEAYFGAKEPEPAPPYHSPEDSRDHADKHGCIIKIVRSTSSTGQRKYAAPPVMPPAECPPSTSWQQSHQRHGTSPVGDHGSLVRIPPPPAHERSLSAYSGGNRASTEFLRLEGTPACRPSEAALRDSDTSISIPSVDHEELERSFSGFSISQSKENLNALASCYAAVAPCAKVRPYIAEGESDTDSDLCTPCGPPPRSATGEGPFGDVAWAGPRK
KCNQ2 enhance baseline: further read-out of KCNQ2 enhance, marked with its call; B-score; compound at 10 µM; measured here: initial fluorescence intensity artifact check;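 brightness before thallium and not channel activity; 0 = typical well and far values either way flag optical interference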
* hit, by the source's call.

SMILES	KCNQ2 enhance	KCNQ2 enhance baseline
O=C(Nc1ccccn1)C1CCN(S(=O)(=O)c2cccc3nonc23)CC1	0.84	-0.14
Cc1cc(-c2ccc(NC(=O)[C@@H]3CCCC[C@@H]3C(=O)O)c(C)c2)ccc1NC(=O)[C@@H]1CCCC[C@@H]1C(=O)O	0.15	0.49
CS(=O)(=O)c1ccc(C(=O)Nc2ccc(N3CCCCC3)cc2)c(Cl)c1	0.36	0.12
CC(OC(=O)c1ccccc1NCc1ccco1)C(=O)Nc1ncc(Cl)cc1Cl (stereo unspecified)	0.02	0.83
CCN(C1CCCCC1)S(=O)(=O)c1ccc(OC)c(C)c1	0.01	-0.03
O=C(Nc1cccc(Cl)c1)N1CCN(C2c3ccccc3-c3ccccc32)CC1	0.74	1.1
CCOC(=O)CCc1c(C)c2ccc(OCC(=O)N3CCOCC3)c(C)c2oc1=O	0.8	0.05
O=C(c1ccc(F)cc1)C1CCN(C(=O)c2ccncc2)CC1	0.68	-0.86
CCN(CC(=O)Nc1c(F)cccc1F)C(=O)CNC(=O)c1cccc(C)c1	0.07	0.81
c1ccc(-c2nc(-c3ccccn3)no2)cc1	0.49	-0.16
Nc1c(C(=O)NCc2ccccc2)nnn1Cc1ccc(F)cc1	0.79	-0.03
Cc1cccc(-n2c(SCc3ccc(C#N)cc3)nnc2-c2c[nH]c3ccccc23)c1	0.09	0.07
O=C(CNC(=O)c1ccccc1Br)N/N=C/c1cc(Br)ccc1O	1.7	-0.37
COc1ccc(CN(CCC(c2ccco2)C(C)C)C(C)=O)cc1OC (stereo unspecified)	1.5	-0.25
Cc1ccc2c(NC(=S)NC(=O)c3ccccc3)cccc2n1	1.7	-1.7
CCN(c1ccc(NC(=O)c2ccc(N3CCCC3=O)cc2)cc1)C(C)C	1.7	-0.9
O=C1CCCCC/C1=N/Nc1ccc(OCc2ccccc2)cc1	0.05	1.6
NC(=O)CSc1ncnc2c1nnn2Cc1ccc(F)cc1	0.12	1.6
COCCn1c(SCC(=O)Nc2nnc(C)s2)nnc1-c1ccncc1	0.25	1.2
CC1Cc2ccccc2N1C(=O)COC(=O)Cn1nnc(-c2ccccc2)n1 (stereo unspecified)	1.4	-2
Cc1ccccc1NC(=O)C1CCN(S(=O)(=O)c2cccs2)CC1	0.7	1
O=Cc1ccc(OC(=O)c2cccnc2)cc1	0.54	-0.36
C=CCOc1c2ccc(C(=O)NC3CCCc4ccccc43)cc2nn1C (stereo unspecified)	2.1	-0.76
CN1CCc2c(sc3c2c(=O)n(-c2cccc(Cl)c2)c2nncn32)C1	0.04	1.9
O=C(Oc1ccc(=O)n(-c2ccccc2)n1)c1ccc(F)cc1	0.07	-0.11

Of the compounds above, 5 contain fluorine:
SMILES	KCNQ2 enhance	KCNQ2 enhance baseline
O=C(c1ccc(F)cc1)C1CCN(C(=O)c2ccncc2)CC1	0.68	-0.86
CCN(CC(=O)Nc1c(F)cccc1F)C(=O)CNC(=O)c1cccc(C)c1	0.07	0.81
Nc1c(C(=O)NCc2ccccc2)nnn1Cc1ccc(F)cc1	0.79	-0.03
NC(=O)CSc1ncnc2c1nnn2Cc1ccc(F)cc1	0.12	1.6
O=C(Oc1ccc(=O)n(-c2ccccc2)n1)c1ccc(F)cc1	0.07	-0.11

Additional compounds:
SMILES	KCNQ2 enhance	KCNQ2 enhance baseline
COc1ccc(NC(=O)CSc2nc3sc4c(c3c(=O)n2-c2ccc(OC)cc2)CCN(C)C4)cc1	0.95	0.03
Cc1cccc(/C=N/NC(=O)c2ccc(Br)cc2)c1	0.58	-1.6
CCN(C(=O)C1CC1)C1CCS(=O)(=O)C1 (stereo unspecified)	1.6	-0.56
COc1ccc(-n2[nH]c(C)cc2=O)cc1	0.49	0.45
O=C(NC1CCCCC1)c1cc([N+](=O)[O-])ccc1N1CCCCC1	0.17	0.56
COC(=O)CC/C(O)=C1\C(=O)CC(C)(C)CC1=NCCc1nc2ccccc2[nH]1	1.5	-0.75
CC1CCCCN1CCNC(=O)c1cc2c(=O)n(C)c3ccccc3c2n1C (stereo unspecified)	0.57	0.59
O=C(C1CC1)N1CCc2cc(S(=O)(=O)NCCC3=CCCCC3)ccc21	0.06	0.46
CC(C)OC(=O)CN1C(=O)C(C)(C)Oc2ccc(C(=O)NC(C)(C)C)cc21	0.07	-1.2
CC1Cc2cc(C(=O)O)ccc2O1 (stereo unspecified)	0.95	-3.5
COc1ccc(C(=O)NCc2nnc(SCC(=O)NC3CCCCC3)n2C)cc1	1.6	0.73
COc1ccc2cc(C#N)c(N3CCN(Cc4nnnn4CCC(C)C)CC3)nc2c1	0.19	-0.85
COc1cccc(C2=NOC(C(=O)Nc3cc(C)on3)C2)c1OC (stereo unspecified)	0.97	-0.69
Cc1ccccc1C(=O)N1CCC(C(=O)NCc2ccc(Cl)cc2)CC1	0.01	0.26
COc1ccc(CCC(=O)NCCc2ccc(OC)c(OC)c2)cc1	0.1	-0.91
COCCNC(=O)C1CC(c2cccc(OC)c2)=NO1 (stereo unspecified)	0.35	2.3
CCN1C(=S)N[C@@H](CCc2ccccc2)[C@H](C(=O)OC)[C@H]1C	0.1	-0.27
CCOC(=O)c1ccc(NC(=O)COc2coc(CN3CCc4ccccc43)cc2=O)cc1	0.23	-0.38
CCCOc1ccccc1C1CC(=O)Nc2cc3c(cc21)OCO3 (stereo unspecified)	0.03	1.8
Cc1ccc2oc(-c3ccccc3)nc2c1	0.88	-2
COC(=O)c1ccc(C(=O)OC)c(NC(=O)COC(=O)CCOc2ccc(C)cc2)c1	0.56	-1.3
CC1(C)OC(=O)C(=Cc2ccc(-c3ccc(Cl)c(C(=O)O)c3)o2)C(=O)O1	0.05	4
COc1cc2c(cc1CN1CCN(C(=O)c3cc(OC)c(OC)c(OC)c3)CC1)OCO2	1	-0.03
CN1CCN(C(=O)/C(=C/c2cccs2)NC(=O)c2cccs2)CC1	0.52	0.35
CC(=O)NNc1ncnc2ccccc12	0.93	-1.6
SMILES	KCNQ2 enhance	KCNQ2 enhance baseline
O=C(Nc1ccccc1OC(F)F)c1ccc(F)cc1	0.83	1
CCN(C(=O)CSc1nnc(-c2cccs2)o1)C1CCS(=O)(=O)C1 (stereo unspecified)	0.65	-0.55
O=C(Nc1cc(C(=O)N2CCOCC2)cc(C(=O)N2CCOCC2)c1)c1cc(F)c(F)cc1Cl	0.69	0.01
CC(=O)N/C(=N/c1nc(C)cc(C)n1)Nc1cc(C)cc(C)c1	0.14	-0.54
COc1cccc(CNC(=O)c2ccc(CS(=O)Cc3ccc(C)cc3)o2)c1 (stereo unspecified)	0.23	1
Cc1ccc(NC(=O)Cc2ccsc2)cc1Cl	0.39	-1.1
COc1ccc(C(=O)CCNc2ccc(C)c(Cl)c2)cc1	0.03	-1.3
O=C(Nc1cccc(C(F)(F)F)c1)C12CC3CC(CC(C3)C1)C2	0.8	0.06
COc1ccccc1NC(=O)Cc1coc2cc(C)ccc12	0.44	0.25
Cc1c(C(=O)c2ccc(Br)cc2)c(=O)n(C)c(=O)n1C	0.3	-0.64
O=C(COC(=O)C1CC1)Nc1ccc(Oc2ccccc2)cc1	2	-1.3
CN(C)S(=O)(=O)c1cccc(NC(=O)Cn2cc(C(F)(F)F)cc(Cl)c2=O)c1	0.07	1.9
COc1ccc(Cc2nnc(SC(C)C(=O)Nc3ccc(C(N)=O)cc3)o2)cc1 (stereo unspecified)	0.41	-0.44
O=C(COc1cccnc1[N+](=O)[O-])Nc1ccc(N2CCOCC2)cc1	0.52	0.34
COc1ccc(CC(=O)Nc2ccc(N3CCCC3)c(C)c2)cc1	6.8*	-0.06*
CC(CN1C(C)CCCC1C)OC(=O)c1ccccc1F (stereo unspecified)	0.01	-1.9
CCOC(=O)C1CCN(C(=O)CN(c2cccc(C(F)(F)F)c2)S(C)(=O)=O)CC1	0.31	0.87
CCS(=O)(=O)c1nc(S(=O)(=O)c2ccc(Cl)cc2)c(N2CCN(C)CC2)s1	0.16	1.2
O=C(NCC1OCCc2ccccc21)c1ccc(NC(=O)c2ccccc2Cl)cc1 (stereo unspecified)	1.4	-2.2
O=C(N[C@@H](Cc1c[nH]c2ccccc12)C(=O)O)C1CCN(S(=O)(=O)c2ccc(Cl)cc2)CC1	0.64	2.1
O=C(CNc1ccccc1)Nc1ccc(F)cc1	0.7	-0.93
O=C(c1cccs1)N1CCCC(c2nc3c(nnn3Cc3cccc(Cl)c3)c(=O)[nH]2)C1 (stereo unspecified)	0.67	-0.53
Cc1[nH]n(C(N)=S)c(=O)c1N=Nc1ccc(S(=O)(=O)N2CCCC2)cc1	0.44	1.8
Cc1[nH]n(-c2ccc([N+](=O)[O-])cc2)c(=O)c1C=NCCN1CCN(C(=O)c2ccccc2F)CC1	0.6	-0.34
Cc1occc1C(=O)NCc1ccccn1	0.58	-0.79
SMILES	KCNQ2 enhance	KCNQ2 enhance baseline
CN(C(=O)/C=C/c1ccccc1)C1CCS(=O)(=O)C1 (stereo unspecified)	1.2	0.74
Cc1ccc(N(CC(=O)NC(C)(C)C)C(=O)CNC(=O)c2cccs2)cc1C	0.48	-1.2
O=C(CC1CCCC1)Nc1ccc(Br)cc1	1.3	-1.4
NC(=O)COC(=O)CC12CC3CC(CC(C3)C1)C2	0.72	-0.03
COc1cccc(NC(=O)c2ccc(N3C(=O)C4CC=C(C)CC4C3=O)cc2)c1 (stereo unspecified)	0.44	-1.4
CCNc1nc(NC(C)(C)C)nc(SC(C(C)=O)C(C)=O)n1	0.12	-0.93
CC1(C)COC(/C=C/c2cccc([N+](=O)[O-])c2)=N1	0.32	0.08
COc1ccc(-c2nc(CS(=O)CC(=O)NCc3ccc(Cl)cc3)c(C)o2)cc1 (stereo unspecified)	1.6	-0.22
Cc1ccc(NC(=O)CN(C)S(=O)(=O)c2cccc3cccnc23)c(C)c1	1.8	-0.1
COc1ccc(NC2=NCC(=O)N2Cc2cccs2)cc1	1.2	-0.14
COc1ccc(S(=O)(=O)N(C)C)cc1NC(=O)[C@H](Cc1ccccc1)N1C(=O)c2ccccc2C1=O	1.4	-2.5
O=C(CN1CCN(C(=O)c2ccccc2)CC1)Nc1ccc(Cl)cc1F	1.3	0.13
O=C(N/N=C/c1ccc([N+](=O)[O-])cc1)c1ccccc1OCc1ccccc1	0.99	0.54
Cc1cc(C)cc(NC(=O)C2CCN(S(=O)(=O)c3c(C)n[nH]c3C)CC2)c1	1.5	1.2
Nc1cc(N)nc(SCC(=O)N2CCc3ccccc32)n1	0.01	-1.5
COC(C(=O)Nc1ccc(F)c(F)c1)c1ccccc1 (stereo unspecified)	2.4	-0.5
CCC(C)Nc1nc2ccccc2n2c(C)nnc12 (stereo unspecified)	0.4	0.04
CCOC(=O)N1CCN(C(=O)c2cccc(NC3=NC4CS(=O)(=O)CC4S3)c2)CC1 (stereo unspecified)	2	-0.24
COCCCNC(=S)Nc1ccc(C)cc1	0.7	-0.17
Cn1c(=O)n(C)c2cc(/C=N/NC(=O)c3cc4cc(Br)ccc4o3)ccc21	2.4	0.06
CC1CN(C(=O)Nc2cccc(C(F)(F)F)c2)CC(C)O1 (stereo unspecified)	0.03	-2.3
CCC(c1nnnn1CCOC)N1CCN(Cc2ccccc2OC)CC1 (stereo unspecified)	0.24	0.97
Cc1ccc(CNC(=O)Cn2c(=O)n(-c3ccccc3)c(=O)c3sccc32)cc1	0.96	1.2
CCOC(=O)c1[nH]ncc1CN1CCC(Cc2cccc(OC)c2)(C(=O)OCC)CC1	1.1	0.06
CCOc1cccc(C2C(C(=O)c3ccc(C)o3)=C(O)C(=O)N2CCCn2ccnc2)c1 (stereo unspecified)	0.58	1.8
SMILES	KCNQ2 enhance	KCNQ2 enhance baseline
CCCN(CC(=O)Nc1ccccc1OC)C(=O)CSc1nc(C)cc(C)n1	0.95	-0.54
CC1CCc2nc(NCCO)nc(C(F)(F)F)c2C1 (stereo unspecified)	0.68	-2
Cn1c(SCC(=O)N2CCc3ccccc32)nnc1C1CC1	1.3	0.48
[O-]/[N+](=C\c1ccc(F)cc1)c1ccccc1	1.1	-2
O=C(CSCc1ccccc1)Nc1ccc2c(c1)C(=O)NC2=O	1.1	-1.2
CN1CCN(c2ccc(C(F)(F)F)cc2NC(=O)Nc2ccccc2)CC1	0.24	-0.87
Cc1ccc(C(=O)Nc2ncc(C)s2)o1	0.39	-2.5
CC1(C)OC(=O)C(=Cc2ccc[nH]2)C(=O)O1	1.4	-0.55
COc1cccc(C(C(=O)NC(C)(C)C)N(CCC(C)C)C(=O)CCC(=O)Nc2cc(C)on2)c1OC (stereo unspecified)	0.98	-0.99
CN(C)c1nc(N/N=C/c2c[nH]c3ccccc23)nc(N2CCOCC2)n1	1.7	-1.4
Cc1cc(N2CCN(C(c3ccccc3)c3ccccc3)CC2)n2ncnc2n1	2	-1
CCN(CC)S(=O)(=O)c1cc(NC(=O)COC(=O)CCC(=O)c2cccs2)ccc1C	0.14	-0.97

Another view of some results above:
SMILES | KCNQ2 enhance | KCNQ2 enhance baseline
CCCN(CC(=O)Nc1ccccc1OC)C(=O)CSc1nc(C)cc(C)n1 | 0.95 | -0.54
CC1CCc2nc(NCCO)nc(C(F)(F)F)c2C1 (stereo unspecified) | 0.68 | -2
Cn1c(SCC(=O)N2CCc3ccccc32)nnc1C1CC1 | 1.3 | 0.48
[O-]/[N+](=C\c1ccc(F)cc1)c1ccccc1 | 1.1 | -2
O=C(CSCc1ccccc1)Nc1ccc2c(c1)C(=O)NC2=O | 1.1 | -1.2
CN1CCN(c2ccc(C(F)(F)F)cc2NC(=O)Nc2ccccc2)CC1 | 0.24 | -0.87
Cc1ccc(C(=O)Nc2ncc(C)s2)o1 | 0.39 | -2.5

An excerpt; rates above refer to the full screens.
